Screening results as filed in PubChem BioAssay.
HIV TAR-Tat: HIV-1 TAR-Tat binding disruption | AID 1259389 | HIV-1 TAR RNA, Tat peptide displacement FRET; active compounds read high | z-score (concentration not given with the values) | hit rate 0.6% among 100,000;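 also: score is relative to mean and SD of negative controls; some compounds called inactive have numbers as strong as hits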
CDC25B CDK2 inh: human CDC25B-CDK2/CyclinA binding inhibition. P30305+P24941. HTRF CDC25B-CDK2/CyclinA binding, anti-His/anti-Flag; active compounds read high. z-score (test concentration not listed). hit rate 0.72% among 94,000;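 also: score is relative to mean and SD of negative controls; strong numbers were not always called active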
Active calls of the source: *; nt = no result given.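 The calls were made as follows: active = z-score from 3 up in half or more of its runs; inactive = the rest.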

SMILES	HIV TAR-Tat	CDC25B CDK2 inh
O=c1c2nccnc2nc(SCc2ccccc2F)n1Cc1ccc(Cl)cc1	1.96	-0.72
Cc1nc(C(=O)N/N=C/c2[nH]ncc2Br)cs1	nt	-0.35
CCOc1ccc(/C=C/c2nc(-c3ccc(OC)c(OC)c3)no2)cc1OCC	2.52	-1.1
COc1ccc(NC(=O)CSc2nnc(-c3csc4c3CCCC4)o2)cc1	1.54	-0.6
Cc1ccn2c(=O)c(C(=O)NC(C)c3ccccc3)c(O)nc2c1 (centres undefined)	0.52	-0.84
COc1ccc(OCCOc2ccc(OC)cc2)cc1	nt	-0.77
CSc1nc2sc3c(c2c(=O)n1-c1cccc(C)c1)CC(C)(C)OC3	-1.1	-1.01
COc1cc(NC(=O)Cn2c(=O)oc3cc(S(=O)(=O)N4CCCC4)ccc32)ncn1	nt	-2.65
O=C(NC1CCCC1)C1=Cc2cc(Cl)ccc2OC=C1	0.87	0.65
COc1ccc(OC)c(CN2CCN(Cc3ccc(OC)c(Br)c3)CC2)c1	0.91	0.31
CC1CN(C(=O)C(=O)c2c[nH]c3ccccc23)CC(C)O1 (centres undefined)	nt	-1.31
CC(=O)OCc1nc2sc3c(c2c(=O)[nH]1)CCCC3	2.07	-1.53
CC(=O)N1CCOc2ccc(S(=O)(=O)N(C)C3CCCC(C)C3C)cc21 (centres undefined)	2.09	-1.32
O=[N+]([O-])c1ncc(Br)cc1Nc1ccccc1	0.97	-0.17
c1ccc(Cc2nc(NCc3ccco3)c3c4c(sc3n2)CCCC4)cc1	nt	-0.04
COc1ccc(-c2ccnc(SCC(=O)NCCSCc3ccco3)n2)cc1	nt	-1.45
O=C(Nc1c(C(=O)Nc2ccc(Cl)cc2)cnn1-c1ccccc1)c1ccco1	nt	-0.96
COc1cc(OC)c(OC)cc1/C=N/NC(=O)c1cc(-c2ccccc2)nc2ccccc12	nt	-2.25
NC(=O)c1ccccc1NC(=O)CSc1nc2ccccc2o1	nt	-2.35
Cc1ccc(Nc2ncnc3c2nc2n3CCCCC2)c(Br)c1	-0.8	nt
Cc1[nH]c(=O)[nH]c(=O)c1S(=O)(=O)Nc1ccc2oc(-c3ccncc3)nc2c1	6.21*	nt
CC(N=Cc1cc(Cl)ccc1O)c1ccc2c(c1)OCCO2 (centres undefined)	nt	-1.53
c1ccc(Sc2nc(-c3ccccc3)ns2)cc1	nt	-1.07
COc1ccccc1N1CCN(C(=O)c2cc3n(n2)C(C(F)(F)F)CC(c2ccco2)N3)CC1 (centres undefined)	nt	0.51
CCn1c2ccccc2c2nnc(SCC(=O)Nc3cc(C)ccn3)nc21	-0.48	-3.35
Further entries.
SMILES	HIV TAR-Tat	CDC25B CDK2 inh
COc1ccc(-n2c(SCC(=O)Nc3ccc4c(c3)OCCO4)nc3ccsc3c2=O)cc1	1.07	nt
CSc1ncc(Cl)c(C(=O)Oc2ccc(Br)cc2)n1	2.03	-0.47
COc1ccc(C(=O)c2cnc3ccc(F)cc3c2S(=O)(=O)c2ccc(OC)cc2)cc1	-1.31	-1.55
Cc1cc(-c2ccc(C)c(S(=O)(=O)Nc3cc(C)on3)c2)on1	1.26	nt
Cc1cc(C)cc(Nc2nc3ccccc3c3nncn23)c1	1.07	-1.56
COc1cc(/C=N/N2CC(=O)N(c3ccc(Cl)cc3)CC2=O)cc(OC)c1OC	nt	-0.58
Cc1ccc(C(=O)NC(C)C)cc1NC(=O)C1=CSCCO1	0.98	nt
Nc1n[nH]c(-c2ccc(Cl)cc2)n1	0.74	0.24
Cc1noc2ncnc(NC3CCCCC3)c12	2.34	nt
Cc1cccc(Cn2cc3c(=O)[nH]nc-3c3cc(F)ccc32)c1	1.6	1.11
Nc1cc(=O)[nH]c(=O)n1Cc1cccnc1	0.41	-0.52
COc1ccccc1/C=C/c1nc(C#N)c(NCC(C)C)o1	-0.19	0.23
CCOC(=O)c1c(NC(=O)Cn2nc(C(F)(F)F)c3c2CCC3)sc(C)c1C	1.81	0.57
Cn1c(SCc2ccccc2F)nc(=O)c2c1NC(=O)CC2c1cccc(O)c1 (centres undefined)	1.18	-1.19
COc1ccc(NC(c2ccccc2)c2nnc(-c3ccccc3F)o2)cc1OC (centres undefined)	-1.28	-2.43
COCCNc1oc(/C=C/c2ccc(OC)c(OC)c2)nc1C#N	0.7	-1.84
NNS(=O)(=O)c1ccc(-c2ccccn2)s1	nt	-2.09
CCOC(=O)c1sc2nc(C)cc(C)c2c1NC(=O)Nc1cccc(Cl)c1	nt	1.4
CC1CCCN(C(=O)c2ccc3c(=O)n4c(nc3c2)CCCCC4)C1 (centres undefined)	nt	-1.15
O=C(NNc1ccccc1C(F)(F)F)c1sccc1Br	nt	-2.03
Cc1nn2c(=O)cc(CSc3ccccc3NC(=O)CC(C)C)nc2s1	1.83	nt
CCS(=O)(=O)c1nc2ccccc2n1CC(N)=O	0.25	0.44
CSc1ccc(CNC(=O)NC2COc3ccccc3C2)cc1 (centres undefined)	0.54	nt
O=C1N(c2ccc(Cl)cc2)C2CS(=O)(=O)CC2N1c1ccccc1Cl (centres undefined)	0.33	1.17
Cc1ccc(C2C(=O)C(C(=O)NC(C)(C)C)=CC3=C2CCCC3=O)cc1 (centres undefined)	-0.51	nt

The last 4 entries of the section before open the next one:
SMILES	HIV TAR-Tat	CDC25B CDK2 inh
CCS(=O)(=O)c1nc2ccccc2n1CC(N)=O	0.25	0.44
CSc1ccc(CNC(=O)NC2COc3ccccc3C2)cc1 (centres undefined)	0.54	nt
O=C1N(c2ccc(Cl)cc2)C2CS(=O)(=O)CC2N1c1ccccc1Cl (centres undefined)	0.33	1.17
Cc1ccc(C2C(=O)C(C(=O)NC(C)(C)C)=CC3=C2CCCC3=O)cc1 (centres undefined)	-0.51	nt
Cc1ncc(-c2ccc(S(=O)(=O)NCCc3sccc3C)cc2)o1	-0.09	nt
CCC(CC)C(=O)Nc1ccccc1SCc1cc(=O)n2c(ncn2C(C)C)n1	-0.49	-2.92
CCc1nn(C(CC)C(=O)NC(C)c2ccc3c(c2)OCCO3)c(=O)c2cc3oc(C)cc3n12 (centres undefined)	0.45	-0.43
COC(=O)c1cc(S(=O)(=O)Nc2ccc(-c3ccno3)cc2)c[nH]1	-0.01	nt
CC1CCCC(NC(=O)c2ccc3snnc3c2)C1C (centres undefined)	0.98	0.09
CN1C(C(=O)Nc2cccnc2)=CC(c2ccc3c(c2)OCO3)=NS1(=O)=O	2.41	-1.07
CC1(C)Cc2nc(Cl)c(C#N)cc2CO1	nt	-0.62
N#CCSc1ncccc1C(F)(F)F	nt	-1.33
C=C(c1ccccc1)c1ccc(N(C)C)cc1	2.54	-3.27
Cc1cc(Nc2ccccc2F)n2nc(-c3ccco3)nc2n1	-2.41	nt
CCOC(=O)C1CCN(c2ccc([N+](=O)[O-])cn2)CC1	nt	0.05
O=C(C1CCN(c2ccc(Cl)cc2)C1=O)N1CCN(C2CCCCC2)CC1 (centres undefined)	0.13	nt
Cc1nn(CCCC(=O)N2CCN(c3ccc(F)cc3)CC2)c(=O)c2cc3occc3n12	3.09	0.15
Cc1ccc(Nc2nnc(-c3ccc(C)c(S(N)(=O)=O)c3)c3ccccc23)cc1	2.33	-2.9
Cc1ccn2c(=O)c(C(=O)NCCCN(C)C)c(O)nc2c1	-0.09	-0.42
CCOc1ccc(-c2[nH]nc3nc(-c4ccc(C(=O)OC)cc4)cc(C(=O)O)c23)cc1	-0.11	0.02
O=S(=O)(Nc1ccc2c(c1)N(S(=O)(=O)c1ccc(F)cc1)CCC2)c1ccccc1Cl	1.52	nt
CSc1c(C#N)c(-c2cccs2)nn1CNC(=O)Nc1ccccc1C(F)(F)F	nt	-0.78
O=C(NCC1CCCO1)C(=O)Nc1c2c(nn1-c1ccc(F)cc1)CSC2 (centres undefined)	0.55	nt
Cc1sc2nc(SCC(=O)NCc3ccccn3)[nH]c(=O)c2c1C	-1.43	-2.22
COc1cc(/C=C/C=O)cc(OC)c1OC	1.34	nt
NC(N)=NS(=O)(=O)c1ccc(N)cc1	1.68	nt
O=C(NCc1ccc2c(c1)OCO2)[C@H](Cc1ccccc1)N1Cc2ccccc2C1=O	-0.65	-1.64
O=S(=O)(NCc1ccc2c(c1)OCO2)c1ccc2[nH]c3c(c2c1)CCCCC3	1.37	nt
COC(=O)c1sccc1NC(=O)COCc1cc(-c2cccs2)on1	0.14	nt

Record cards (already shown). Screens in order: HIV TAR-Tat, CDC25B CDK2 inh
Listed for `N#CCSc1ncccc1C(F)(F)F` : nt, -1.33
Listed for `Cc1cc(Nc2ccccc2F)n2nc(-c3ccco3)nc2n1` : -2.41, nt
Listed for `NC(N)=NS(=O)(=O)c1ccc(N)cc1` : 1.68, nt
Listed for `COC(=O)c1sccc1NC(=O)COCc1cc(-c2cccs2)on1` : 0.14, nt

Later entries.
SMILES	HIV TAR-Tat	CDC25B CDK2 inh
Cc1ccc(CNS(=O)(=O)c2cc(-c3noc(C)n3)cs2)cc1	1.6	nt
CCCc1cc(=O)n2nc(N3CCC(C(=O)NCCCN4CCCC4)CC3)sc2n1	1.42	-0.26
CC(C)C(NC(=O)NC1CCCC1)c1nc2cccnc2n1C(C)C (centres undefined)	-1.1	nt
C=CCSc1nc2c(c(=O)[nH]1)C(c1ccccc1)C(C(=O)OCC)=C(C)N2 (centres undefined)	0.15	-0.63
CCc1ccc(Oc2c(C(F)(F)F)oc3cc(OCC(=O)OC)ccc3c2=O)cc1	0.92	2.44
CCN(C(=O)c1ccc(N2C(=O)CCS2(=O)=O)cc1Cl)C1CCS(=O)(=O)C1 (centres undefined)	1.11	-1.28
COc1cccc(-c2noc(NCc3ccc(Cl)cc3)n2)c1OC	-0.34	nt
COc1ccc(OC)c(C2CC(=O)Nc3cc4c(cc32)OCCO4)c1 (centres undefined)	nt	-0.05
Cc1ccc2c(c1)c1c(n2CC(O)CNCc2ccccc2)C(=O)CCC1 (centres undefined)	-0.14	0.73
CN1CCN(c2nc(N3CCCC3)nc3c2cnn3C)CC1	0.83	nt
CC(C)NC(=O)Cn1cc(S(=O)(=O)N2CCCC2)c(S(=O)(=O)N2CCCC2)c1	-0.09	nt
CCCN1C(=O)C2(c3ccccc31)c1c(oc3ccc(F)cc3c1=O)C(=O)N2CCCOC(C)C (centres undefined)	3.01	0
N#Cc1c(NC(=O)c2cnn3c(C(F)(F)F)cc(-c4ccco4)nc23)sc2c1CCCC2	0.91	nt
Cc1cc2oc3c(c(=O)c2cc1C)C(c1ccc(Cl)cc1)N(CCCN1CCOCC1)C3=O (centres undefined)	0.12	-2.67
Cc1ccc(-c2cn3cccnc3n2)cc1NC(=O)CC(C)C	nt	0.71
COC(=O)c1ccc2c(c1)N(Cc1cc(=O)n3ccccc3n1)C(=O)c1ccccc1S2	-0.61	nt
O=C(Cn1cnc2c(oc3ccccc32)c1=O)NCc1ccco1	nt	-0.83
COc1ccc(-c2cccc(NS(=O)(=O)c3cccc(C)c3)c2)nn1	0.39	nt
COc1ccccc1N1CCN(c2ccc3cc(S(=O)(=O)N4CCCCC4)ccc3n2)CC1	3.2	nt
Cc1ccc2c(C(=O)O)cc(-c3ccccc3)nc2c1	nt	-2.52
O=C1Nc2c(S(=O)(=O)N3CCCCC3)cc(S(=O)(=O)N3CCCCC3)c3cccc1c23	1.45	0.84
CCCCNc1ncccc1-c1nc(-c2ccc(C)cc2)no1	1.42	0.21
O=C(NC1CC1)c1ccc2c(c1)NC(=O)C1CCCCN21 (centres undefined)	1.17	nt
Cc1ccc(/C=C/c2nn3c(-c4ccco4)nnc3s2)cc1C	16.6*	3.87
Cc1c(-c2nc(-c3ccc4c(c3)OCO4)no2)nnn1-c1ccc(Br)cc1F	1.45	nt
Next part:
SMILES	HIV TAR-Tat	CDC25B CDK2 inh
Cc1ccc(C)c(-c2csc(Nc3ccc(S(N)(=O)=O)cc3)n2)c1	2.02	1.7
CC1=C(c2ccc(Cl)cc2)S(=O)(=O)N=C1N1CCN(c2ccc(F)cc2)CC1	0.95	-1.42
CC1CC(C)CN(CCCNc2cnnc3c(Cl)cccc23)C1 (centres undefined)	-0.68	nt
O=C(COc1ccccc1)Nc1ccc2nc(SCC(=O)N3CCc4ccccc43)sc2c1	0.9	-0.03
Cc1ccc2nc(NC(=O)c3cc(-c4ccc5c(c4)OCCO5)on3)sc2c1	0.08	-2.34
CCOC(=O)C(=CNNc1ccnc2cc(Cl)ccc12)C(=O)OCC	nt	-2.21
CC1=CCC2C(=O)N(c3ccc(C(=O)O)cc3)C(=O)C2C1 (centres undefined)	-0.56	-2.19
CCOC(=O)CCc1c(C)c(C#N)c2[nH]c3ccccc3n2c1=O	nt	-3.79
Clc1cccc(NC(c2ccccc2)c2nnc(-c3ccccc3)o2)c1 (centres undefined)	-0.18	-0.79
O=c1c2nnn(-c3cccc(Cl)c3)c2ncn1C/C=C/c1ccccc1	0.68	1.66
CC(C)CCN1CSC2=C(C#N)C(c3ccc(F)cc3)CC(=O)N2C1 (centres undefined)	-0.59	5.02*
Cc1nn(CC(=O)N2CCC(C)CC2)c(=O)c2cc3occc3n12	1.84	-1.39
CSc1ccc(CCN2C(=O)CCC2(C)C(=O)NC2CCCC2)cc1 (centres undefined)	1.36	-0.86
CN(C(=O)CN1C(=O)CSc2ccc(S(=O)(=O)N3CCOCC3)cc21)c1ccccc1	-0.86	nt
Cc1ccsc1CCNC(=O)c1cnc(N2CCOCC2)nc1	1.67	nt
C=CCSc1ncc2c(=S)[nH]c(=S)[nH]c2n1	nt	0.21
CSc1nncc(-c2ccc(F)cc2)n1	1.31	0.73
O=C(On1nnc2ccccc2c1=O)c1cccc(N2C(=O)C=CC2=O)c1	nt	0.99
CCCCCCSc1nnc(-c2ccccc2N)c(=O)[nH]1	2.72	-0.71

Entries from the list above that have a nitro group on carbon, in the order listed:
SMILES	HIV TAR-Tat	CDC25B CDK2 inh
O=[N+]([O-])c1ncc(Br)cc1Nc1ccccc1	0.97	-0.17
CCOC(=O)C1CCN(c2ccc([N+](=O)[O-])cn2)CC1	nt	0.05
